Bioassay records as filed in PubChem BioAssay.
Vaccinia stage: Vaccinia orthopox stage-specific inhibition; Vaccinia-infected cells, mCherry/Venus stage reporter fluorescence; active compounds read low; some inactives read as strong as hits; activity change (mCherry), % (no concentration beside the values); actives 0.01% (n = 89,000);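 active = mCherry past -33% and 40 or more points under the early reporter, replicates agreeing; inconclusive = past -33% without that gap or agreement; tested in A549 cells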;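 note: scaled between vehicle wells and reference inhibitor wells; 23 nL library stock went into each well; one replicate is shown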
Vaccinia stage Venus: further read-out of Vaccinia stage, marked with its call; activity change (Venus), %; measured here: Venus reporter, other viral stage;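 negative = less Venus signal; first of two replicates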
Active calls of the source: *; & = joins results of further samples.

Preview:
Results for COc1ccc(S(=O)(=O)Nc2ccc3c(c2)CC(=O)N([C@@H](C)CO)C[C@H](C)[C@@H](CN(C)C(=O)Nc2ccccc2)O3)cc1 ?
Vaccinia stage: 10.7; Vaccinia stage Venus: 8.6

What do the screens show for `COc1ccc(S(=O)(=O)N(C)C[C@@H]2Oc3ccc(NC(=O)Cc4cn(C)c5ccccc45)cc3C(=O)N([C@H](C)CO)C[C@@H]2C)cc1`?
Vaccinia stage: -10.3; Vaccinia stage Venus: -3.2

Results for CO[C@@H]1CN(C)C(=O)c2ccc(NS(=O)(=O)c3cccc(F)c3)cc2OC[C@H](C)N(C(=O)Cc2cccnc2)C[C@@H]1C ?
Vaccinia stage: -1.8; Vaccinia stage Venus: -6.6

Results for O=C(Nc1cc(F)ccc1F)N1CC(=O)N2[C@H](CO)[C@@H](c3ccc(/C=C/c4ccccc4)cc3)[C@H]2C1 ?
Vaccinia stage: -24.2; Vaccinia stage Venus: -17.9

How did COCC(=O)N(C)C[C@@H]1Oc2ncc(C#Cc3ccncc3)cc2C(=O)N([C@H](C)CO)C[C@@H]1C do in these assays?
Vaccinia stage: 11.4; Vaccinia stage Venus: 8.1

What do the screens show for `OC[C@@H]1[C@H](c2ccc(-c3ccccc3F)cc2)[C@H]2CN(Cc3cccnc3)CCCCN12`?
Vaccinia stage: -14.2; Vaccinia stage Venus: -21.4

Results, from the first entry:
Results for COc1ccc(S(=O)(=O)Nc2ccc3c(c2)CC(=O)N([C@@H](C)CO)C[C@H](C)[C@@H](CN(C)C(=O)Nc2ccccc2)O3)cc1 ?
Vaccinia stage: 10.7; Vaccinia stage Venus: 8.6

What do the screens show for `COc1ccc(S(=O)(=O)N(C)C[C@@H]2Oc3ccc(NC(=O)Cc4cn(C)c5ccccc45)cc3C(=O)N([C@H](C)CO)C[C@@H]2C)cc1`?
Vaccinia stage: -10.3; Vaccinia stage Venus: -3.2

Results for CO[C@@H]1CN(C)C(=O)c2ccc(NS(=O)(=O)c3cccc(F)c3)cc2OC[C@H](C)N(C(=O)Cc2cccnc2)C[C@@H]1C ?
Vaccinia stage: -1.8; Vaccinia stage Venus: -6.6

Results for O=C(Nc1cc(F)ccc1F)N1CC(=O)N2[C@H](CO)[C@@H](c3ccc(/C=C/c4ccccc4)cc3)[C@H]2C1 ?
Vaccinia stage: -24.2; Vaccinia stage Venus: -17.9

How did COCC(=O)N(C)C[C@@H]1Oc2ncc(C#Cc3ccncc3)cc2C(=O)N([C@H](C)CO)C[C@@H]1C do in these assays?
Vaccinia stage: 11.4; Vaccinia stage Venus: 8.1

What do the screens show for `OC[C@@H]1[C@H](c2ccc(-c3ccccc3F)cc2)[C@H]2CN(Cc3cccnc3)CCCCN12`?
Vaccinia stage: -14.2; Vaccinia stage Venus: -21.4

Results for C[C@H](CO)N1C[C@H](C)[C@@H](CN(C)Cc2ccncc2)OCCCC[C@H](C)Oc2ccc(NC(=O)NC3CCCCC3)cc2C1=O ?
Vaccinia stage: -10.4; Vaccinia stage Venus: 9.9

Results for O=C(C[C@H]1C[C@H]2c3cc(NC(=O)C4CCC4)ccc3O[C@H]2[C@H](CO)O1)NCc1ccccc1F ?
Vaccinia stage: 4.0; Vaccinia stage Venus: 4.2

Results for C/C=C/c1cccc(-c2nc(C(=O)NCc3ccncc3)cc3c2[C@H](CCO)N([S@@](=O)C(C)(C)C)C3)c1 ?
Vaccinia stage: 13.0; Vaccinia stage Venus: 3.8

How did CC(C)NC(=O)Nc1ccc2c(c1)C(=O)N([C@@H](C)CO)C[C@@H](C)[C@@H](CN(C)C(=O)Nc1ccc(C(F)(F)F)cc1)OCCCC[C@H](C)O2 do in these assays?
Vaccinia stage: 10.8; Vaccinia stage Venus: 6.9

How did CCCN1[C@@H]2Cn3c(ccc(C4=CCCC4)c3=O)[C@H]1[C@@H](C(=O)NCc1ccccn1)[C@@H]2CO do in these assays?
Vaccinia stage: 3.9; Vaccinia stage Venus: 9.4

How did COc1ccc(S(=O)(=O)N(C)C[C@H]2Oc3ccc(NS(=O)(=O)c4ccc(C)cc4)cc3C(=O)N([C@H](C)CO)C[C@@H]2C)cc1 do in these assays?
Vaccinia stage: 2.8; Vaccinia stage Venus: 2.4

Results for CC(C)NC(=O)NCC[C@H]1CC[C@@H](NS(=O)(=O)c2ccc(Oc3ccccc3)cc2)[C@@H](CO)O1 ?
Vaccinia stage: -25.0; Vaccinia stage Venus: -6.6

Results for CO[C@H]1CN(C)C(=O)c2cc(NC(=O)C3CC3)ccc2OC[C@H](C)N(C(=O)c2ccccc2F)C[C@@H]1C ?
Vaccinia stage: 0.2; Vaccinia stage Venus: 7.7

Results for CC(=O)N1[C@@H](CO)[C@@H]2c3ccccc3N(C(=O)c3ccc(F)cc3)C[C@@H]21 ?
Vaccinia stage: 15.2; Vaccinia stage Venus: 9.9

How did C[C@@H]1CN([C@H](C)CO)C(=O)c2cccc(NC(=O)Nc3ccccc3)c2O[C@@H]1CN(C)C(=O)Nc1ccc(C(F)(F)F)cc1 do in these assays?
Vaccinia stage: -12.3; Vaccinia stage Venus: -5.9

Results for C[C@@H]1CN([C@@H](C)CO)S(=O)(=O)c2ccc(C#Cc3ccccn3)cc2O[C@H]1CN(C)C ?
Vaccinia stage: 6.0; Vaccinia stage Venus: 8.2

How did N#C[C@@H]1[C@@H](c2ccc(C#CC3CCCCC3)cc2)[C@H](CO)N1C(=O)c1cccc(F)c1 do in these assays?
Vaccinia stage: 8.9; Vaccinia stage Venus: 5.3

How did CCNC(=O)C[C@H]1C=C[C@@H](NC(=O)C2CCC2)[C@H](CO)O1 do in these assays?
Vaccinia stage: 6.2; Vaccinia stage Venus: 2.3

Results for Cc1noc(C)c1S(=O)(=O)Nc1ccc2c(c1)CC(=O)N([C@H](C)CO)C[C@H](C)[C@@H](CN(C)C(=O)Nc1ccc(C(F)(F)F)cc1)O2 ?
Vaccinia stage: -3.8; Vaccinia stage Venus: 0.9

Results for COc1ccccc1S(=O)(=O)N1C[C@@H](O)COC[C@@H]2O[C@@H](CC(=O)O)CC[C@H]21 ?
Vaccinia stage: 12.5; Vaccinia stage Venus: 6.0

What do the screens show for `C[C@@H]1CN([C@@H](C)CO)C(=O)c2cccc(NS(=O)(=O)c3cn(C)cn3)c2O[C@@H]1CN(C)Cc1ccc2c(c1)OCO2`?
Vaccinia stage: 21.6; Vaccinia stage Venus: 2.6

What do the screens show for `O=C(C[C@@H]1CC[C@H](NC(=O)c2ccc3c(c2)OCO3)[C@@H](CO)O1)NCc1ccc(Cl)cc1`?
Vaccinia stage: 3.7; Vaccinia stage Venus: 8.3

Results for CCC(=O)N(C)C[C@H]1Oc2ncc(C#CC(C)(C)O)cc2C(=O)N([C@H](C)CO)C[C@H]1C ?
Vaccinia stage: 17.4; Vaccinia stage Venus: 5.3

What do the screens show for `CCc1cnc(N2[C@H](CO)[C@@H](c3ccc(C#Cc4ccccc4F)cc3)[C@@H]2C#N)s1`?
Vaccinia stage: -13.6; Vaccinia stage Venus: -15.3

How did N#C[C@H]1[C@H](c2ccccc2C2=CCCC2)[C@H](CO)N1C(=O)NC1CCCC1 do in these assays?
Vaccinia stage: -24.8; Vaccinia stage Venus: -9.9

What do the screens show for `Cc1ccccc1S(=O)(=O)N1[C@@H]2CNC[C@H]1C2c1ccc(-c2ccncc2)cc1` (stereo partly drawn)?
Vaccinia stage: inconclusive; Vaccinia stage Venus: 5.4

Results for Cc1ccc(S(=O)(=O)Nc2ccc3c(c2)C(=O)N([C@H](C)CO)C[C@@H](C)[C@H](CN(C)Cc2ccncc2)OCCCC[C@@H](C)O3)cc1 ?
Vaccinia stage: -19.9; Vaccinia stage Venus: -19.0

How did COc1cccc(S(=O)(=O)N2[C@@H]3CNC[C@H]2C3c2ccc(-c3ccccc3C)cc2)c1 (stereo partly drawn) do in these assays?
Vaccinia stage: 4.4&-8.9; Vaccinia stage Venus: 17.9&-0.5

What do the screens show for `C[C@H](CO)N1C[C@H](C)[C@H](CN(C)S(=O)(=O)c2ccc(F)cc2)Oc2ccc(NC(=O)C3CC3)cc2CC1=O`?
Vaccinia stage: 4.1; Vaccinia stage Venus: 9.9

What do the screens show for `COc1ccc(S(=O)(=O)Nc2ccc3c(c2)C(=O)N([C@@H](C)CO)C[C@H](C)[C@H](CN(C)S(=O)(=O)c2cn(C)cn2)O3)cc1`?
Vaccinia stage: -0.1; Vaccinia stage Venus: 0.6

How did Cc1noc(C)c1NC(=O)Nc1cccc2c1O[C@@H](CN(C)Cc1ccc(C(=O)O)cc1)[C@@H](C)CN([C@H](C)CO)C2=O do in these assays?
Vaccinia stage: -2.9; Vaccinia stage Venus: -2.6

What do the screens show for `CN1C(=O)c2cc(NS(=O)(=O)c3ccccc3F)ccc2OC[C@@H]2O[C@H](CC(=O)NC3Cc4ccccc4C3)CC[C@H]21`?
Vaccinia stage: -10.2; Vaccinia stage Venus: -15.8

How did CO[C@@H]1CN(C)C(=O)c2cc(NC(=O)C3CCCC3)ccc2OC[C@H](C)NC[C@@H]1C do in these assays?
Vaccinia stage: -3.6; Vaccinia stage Venus: -6.6

Results for C[C@@H]1CN([C@H](C)CO)C(=O)c2cc(NS(=O)(=O)c3ccc(F)cc3)ccc2O[C@@H]1CN(C)C(=O)NC1CCCCC1 ?
Vaccinia stage: -10.2; Vaccinia stage Venus: -9.6

Results for C[C@@H]1CN([C@@H](C)CO)S(=O)(=O)c2ccc(C#C[C@@H](C)O)cc2O[C@H]1CN(C)C(=O)Nc1ccccc1 ?
Vaccinia stage: -0.9; Vaccinia stage Venus: 1.7

Results for CCC(=O)Nc1ccc2c(c1)OC[C@H](C)N(C(=O)CN1CCOCC1)C[C@H](C)[C@H](OC)CN(C)C2=O ?
Vaccinia stage: 0.9; Vaccinia stage Venus: 0.7

Results for CC=Cc1ccc2n(c1=O)C[C@@H]1[C@@H](CO)[C@H](C(=O)NCc3ccccn3)N(CCC)[C@H]21 (mixture of isomers) ?
Vaccinia stage: 19.4; Vaccinia stage Venus: 22.3

Results for Cc1ccccc1-c1ccc([C@H]2[C@H](CO)N3CCCCN(S(=O)(=O)c4cn(C)cn4)C[C@@H]23)cc1 ?
Vaccinia stage: 14.5; Vaccinia stage Venus: -12.3

Results for CN(C)CC(=O)N1[C@H](C#N)[C@H](c2ccccc2-c2cccc(C(=O)N(C)C)c2)[C@H]1CO ?
Vaccinia stage: 9.5; Vaccinia stage Venus: 4.0

How did COc1ccccc1-c1ccc([C@@H]2[C@@H](C#N)N(C(=O)c3cccc(F)c3)[C@@H]2CO)cc1 do in these assays?
Vaccinia stage: -10.6; Vaccinia stage Venus: -12.4

Results for C[C@H](CO)N1C[C@H](C)[C@@H](CN(C)C(=O)NC2CCCCC2)Oc2ncc(/C=C/c3ccccc3)cc2C1=O ?
Vaccinia stage: -31.3; Vaccinia stage Venus: -17.9

Results for CO[C@H]1CN(C)C(=O)c2ccc(NC(=O)c3ccc(F)cc3)cc2OC[C@H](C)N(C(=O)c2ccc(F)cc2)C[C@H]1C ?
Vaccinia stage: -4.3; Vaccinia stage Venus: 1.0

Results for Cc1noc(C)c1NC(=O)N(C)C[C@@H]1Oc2cc(C#CCC3CCCC3)ccc2S(=O)(=O)N([C@@H](C)CO)C[C@@H]1C ?
Vaccinia stage: inconclusive

How did O=C(C[C@@H]1C=C[C@H](NC(=O)Nc2ccc(C(F)(F)F)cc2)[C@H](CO)O1)NCCN1CCCC1 do in these assays?
Vaccinia stage: 11.2; Vaccinia stage Venus: 8.1

How did CCS(=O)(=O)N1CC2(C1)[C@@H](c1ccccc1)[C@H](CO)N2C(=O)C1CCCC1 do in these assays?
Vaccinia stage: 9.3; Vaccinia stage Venus: 9.6

Results for C[C@H](CO)N1C[C@H](C)[C@H](CN(C)Cc2ccccn2)Oc2ncc(C#Cc3cccc(F)c3)cc2C1=O ?
Vaccinia stage: -0.9; Vaccinia stage Venus: -9.6

How did CN(C)C(=O)C[C@H]1CC[C@H]2[C@@H](COc3ccc(NC(=O)C4CCCCC4)cc3C(=O)N2C)O1 do in these assays?
Vaccinia stage: 11.4; Vaccinia stage Venus: 8.0

How did CCCNC(=O)[C@H]1[C@H](CO)[C@H]2Cn3c(ccc(-c4ccccc4)c3=O)[C@@H]1N2C(=O)CC do in these assays?
Vaccinia stage: 6.5; Vaccinia stage Venus: 1.3

Results for O=C(C[C@@H]1CC[C@H](NC(=O)Cc2ccccn2)[C@H](CO)O1)NCCCN1CCOCC1 ?
Vaccinia stage: 4.3; Vaccinia stage Venus: 0.9

How did C/C=C/c1ccc([C@H]2[C@H]3CN(S(=O)(=O)c4cccc(C)c4)CCCCN3[C@H]2CO)cc1 do in these assays?
Vaccinia stage: -13.4; Vaccinia stage Venus: -12.8

Results for C[C@@H]1CN([C@@H](C)CO)C(=O)Cc2cc(NC(=O)Nc3cccc4ccccc34)ccc2O[C@@H]1CN(C)Cc1ccc2c(c1)OCO2 ?
Vaccinia stage: -23.0; Vaccinia stage Venus: -10.3

How did COc1ccccc1NC(=O)N[C@H]1CC[C@H](CCn2cc(C3(O)CCCC3)nn2)O[C@H]1CO do in these assays?
Vaccinia stage: 3.0; Vaccinia stage Venus: 10.4

Results for C/C=C/c1ccc2c(c1)O[C@@H](CN(C)C(=O)CN1CCOCC1)[C@@H](C)CN([C@@H](C)CO)S2(=O)=O ?
Vaccinia stage: 14.1; Vaccinia stage Venus: 7.1

What do the screens show for `C[C@@H]1CN([C@@H](C)CO)C(=O)c2cc(C3=CCCCC3)cnc2O[C@@H]1CN(C)Cc1ccccn1`?
Vaccinia stage: -22.6; Vaccinia stage Venus: -25.4

How did C[C@H](CO)N1C[C@H](C)[C@H](CN(C)C(=O)NC2CCCCC2)Oc2ccc(N(C)C)cc2C1=O do in these assays?
Vaccinia stage: 3.2; Vaccinia stage Venus: 3.4

What do the screens show for `COc1ccc(-c2ccc3c(c2)[C@H]2[C@H](CCN2S(=O)(=O)c2ccccc2F)[C@H](CO)N3C)cc1`?
Vaccinia stage: inconclusive

What do the screens show for `CN1CCN(C(=O)C[C@@H]2CC[C@@H]3[C@H](COC[C@@H](O)CN3Cc3ccc(Oc4ccccc4)cc3)O2)CC1`?
Vaccinia stage: inconclusive

Results for CCC(=O)N[C@H]1C=C[C@@H](CC(=O)NCCN2CCCCC2)O[C@@H]1CO ?
Vaccinia stage: 4.5; Vaccinia stage Venus: 5.4

Some of the compounds tested; rates above refer to the full screens.
